Assay outcomes as filed in PubChem.
Env fusion inh: blocks HIV Env-driven cell-cell fusion | HeLa-JRFL Env/CEM21 cell fusion, luciferase | 1.1% of 360,000 active | AID 651610 | inhibition, % at 12.3 µM;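 active = mean replicate inhibition score of at least 50 and every replicate individually at or above 50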;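 also: 0% = plate neutral controls and 100% = maraviroc near 300 nM; one replicate is shown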
CSC inhib: cancer stem cell inhibition; cancer stem cell-like cells viability, luminescence; inhibition, % at 7.5 µM; 1.1% of 300,000 active; AID 2717;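 active = mean at 75% or more and at least half the replicates too; tested in HMLE shEcad cells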;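 also: 0% = median of negative and 100% = median of positive control wells; the first replicate is given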
PABP FP inh: blocks human PABP binding to poly(A) RNA | fluorescence polarization | P11940 | inhibition, % at 35 µM | 1% of 290,000 active;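 active = 50% or more with normal probe brightness, or confirmed in later tests; about a fifth of its hits are not listed in these tables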;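 also: calls also rest on retests at 20 µM and on dose response follow-up; controls were probe without protein and protein plus probe with vehicle; some compounds called inactive have numbers as strong as hits; many hits fall short of the cut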
UUG fidelity: yeast start codon fidelity modulation | 0.13% of 350,000 active | S. cerevisiae UUG-firefly luciferase reporter, luminescence/redox ratio | activity score, % at 18.7 µM;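 active = replicate mean at a twofold rise or more, about +100% in these data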;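 also: firefly luciferase made from a UUG start codon reports start codon fidelity; reporter light over untreated wells divided by growth signal over untreated wells; some hits fall short of that in this replicate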
MT1-MMP act inh: inhibitors of human MT1-MMP activation | GFP/RFP ratio change, % at 20 µM | P50281 | AID 651647 | 0.061% of 360,000 active | HT1080 RFP-PRO-GFP cells, GFP/RFP ratio fluorescence, overnight; percent of plate control window, DMSO zero;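 active = GFP/RFP ratio change of at least 30% with cell ATP level not reduced by more than half and red fluorescence within 50% of control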; also: strong numbers were not always called active
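Assay system: HT1080 RFP-PRO-GFP cells | Dosing: 20 µM single dose, 1% DMSO | Incubation: Cells overnight before dosing, compound overnight, 37 °C, 5% CO2 | Evaluation: GFP/RFP fluorescence ratio | Control set: DMSO-only wells and HT1080 RFP-L50D-GFP cell wells as references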
eIF4H FP inh: inhibitors of RNA binding by human eIF4H | Q15056 | eIF4H fluorescence polarization binding assay | inhibition, % at 35 µM | 0.94% of 290,000 active;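 active = 50% or more with normal probe brightness, or confirmed in later tests; about a fifth of its hits are not listed in these tables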;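 also: calls also rest on retests at 20 µM and on dose response follow-up; 0% = protein and probe with vehicle and 100% = probe without protein; strong numbers were not always called active; many hits fall short of the cut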
Rce1 inhib: blocks yeast Ras-converting enzyme | Q03530 | 0.27% of 290,000 active | yeast membranes, quenched prenylated peptide cleavage fluorescence | calls only | AID 2563;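 active = fall in fluorescence gain of 50% or more versus controls, with final raw signal at or below 3038400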;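 also: plate controls were neutral control wells for no effect and wells lacking membranes for full effect; tested at 10 µM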
Target sequence (Q03530 whole entry, looked up): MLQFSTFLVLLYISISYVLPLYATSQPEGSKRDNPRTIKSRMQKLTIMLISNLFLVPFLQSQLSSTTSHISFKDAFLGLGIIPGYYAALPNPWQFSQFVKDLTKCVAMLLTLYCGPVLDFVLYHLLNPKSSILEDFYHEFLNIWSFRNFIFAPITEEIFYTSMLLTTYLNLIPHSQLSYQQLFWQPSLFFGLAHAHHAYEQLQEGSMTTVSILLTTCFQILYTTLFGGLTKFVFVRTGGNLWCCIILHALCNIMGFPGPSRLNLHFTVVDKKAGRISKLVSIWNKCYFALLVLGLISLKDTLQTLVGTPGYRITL
eIF4H FP inh retest: further read-out of eIF4H FP inh, marked with its call; inhibition, %; compound at 20 µM; confirmation average;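 mean of two retest wells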
PABP FP inh retest: further read-out of PABP FP inh, marked with its call; inhibition, %; compound at 20 µM; confirmation repeats;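 mean of two retest wells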
MT1-MMP act inh RFP: recorded beside MT1-MMP act inh, whose call it bears; RFP signal change, %; measured here: RFP expression control read;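 0 = vehicle wells; hits needed this value within 50% of zero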
* hit, by the source's call; i = inactive; . = no result given.

SMILES	Env fusion inh	CSC inhib	PABP FP inh	UUG fidelity	MT1-MMP act inh	MT1-MMP act inh RFP	eIF4H FP inh	Rce1 inhib	others
CC1C(c2ccccc2)C(C#N)(C#N)C2(C#N)C(=O)NC1(N)C2C (stereo not drawn)	28.2	-0.5	-4.7	-12.1	-3.8	-8.1	6.0	i
CCc1ccc2nc(N3C(=O)C(O)=C(C(=O)c4ccco4)C3c3cccs3)sc2c1 (stereo not drawn)	.	20.8	0.4	-40.8	-1.0	7.4	29.9	i
Cc1cc(N2C(=O)C(O)=C(C(=O)c3ccco3)C2c2ccccc2F)no1 (stereo not drawn)	14.3	-9.9	11.6	-5.0	1.9	1.5	-7.4	i
COc1ccccc1C(=O)Nc1ccc(N2CCN(C(C)=O)CC2)cc1	14.6	.	6.5	.	2.3	2.1	-7.7	i
CCOC(=O)/C(=N\Nc1ccc(Br)cc1)N1CCN(c2ccccc2OC)CC1	7.4	.	-2.8	-27.4	4.6	-1.9	9.0	.
Cc1ccc2c(c1)N(CCC(=O)NCc1ccc3c(c1)OCO3)C(=O)CO2	-2.0	-3.8	-1.3	-15.5	-1.3	-1.6	-7.7	i
O=C(NC(=S)N1CCN(c2nc(-c3ccccc3)cs2)CC1)c1cncc(Br)c1	24.5	21.9	6.2	-28.6	5.9	-2.8	-6.2	i
CCOC(=O)c1c(NC(=O)CSc2nnnn2CC)sc(C)c1C	.	13.7	-0.6	-15.4	-0.8	-2.6	0.3	i
COc1ccccc1-c1nc2cc3ccccc3cc2nc1-c1ccccc1	23.7	13.9	2.8	.	0.6	5.5	17.6	.
Cc1ccc(NC(=O)c2ccc(OCC3CCCO3)cc2)nc1 (stereo not drawn)	-17.1	30.7	.	-23.4	0.9	-2.2	.	i
Clc1ccc(-c2nc3cnccn3c2NC2CCCC2)cc1	.	17.6	15.8	-11.1	-1.6	-6.0	19.4	i
O=C(O)C1CSC2(c3ccc(F)cc3)CCC(=O)N12 (stereo not drawn)	-4.3	-5.3	2.9	-12.3	-2.9	3.8	2.1	i
Cc1onc(-c2c(Cl)cccc2Cl)c1C(=O)NCc1ccc(S(N)(=O)=O)cc1	-5.8	-1.0	3.6	-15.3	-0.6	1.6	-3.3	i
COc1ccc2[nH]c(=O)c(CN(C)C(=O)COc3ccccc3)cc2c1	.	.	-4.8	-16.7	-1.5	-5.5	-1.0	i
COc1cc(OC)c(OC)cc1/C=C/c1cc(C(=O)O)c2ccccc2n1	-6.9	-9.3	25.0	.	0.2	1.5	13.7	i
COc1cc(F)ccc1-c1cc(C(=O)NCC2CCCCC2)[nH]n1	-9.0	.	.	-27.4	3.2	-0.3	.	.
COc1ccc(CCNC(=O)C(C)n2nc(C)c3c(C)n(-c4ccc(C)cc4)nc3c2=O)c(OC)c1 (stereo not drawn)	8.6	4.2	.	7.5	8.7	-29.5	.	i
O=C(c1ccco1)N1CCc2[nH]nc(-c3ccccc3)c2C1	-9.0	-16.9	-5.4	-0.1	1.7	1.1	4.6	i
Cc1noc(C)c1C(=O)NCCC1=CCCCC1	-21.9	-14.6	6.3	0.8	1.3	5.4	-0.3	i
CCC(c1nnc(SCC(=O)Nc2cc(Cl)ccc2C#N)n1C1CCCCC1)N(C)C (stereo not drawn)	10.1	-4.5	-2.4	.	-2.7	4.4	-1.6	i
CCOC(=O)c1[nH]c(C)c(C(=O)Nc2ccc(C)c(Cl)c2)c1C	-12.2	-8.4	5.4	-10.2	4.1	-1.6	4.2	i
CCCc1cc(-c2[nH]ncc2-c2ccc(C(=O)OCC)o2)c(O)cc1O	.	51.5	2.5	-19.1	-7.2	-16.6	-7.6	i
COC(=O)c1sccc1NC(=O)COc1ccccc1Cl	-9.0	11.0	-1.3	6.4	-7.2	-0.1	-0.4	i
C[C@@H](Nc1nc(-c2ccccc2)nc2c1oc1ccccc12)C(=O)O	.	-2.5	8.9	1.1	6.9	-0.1	-8.5	i
COc1ccc(S(=O)(=O)Nc2ccc3c(c2)n(C)c(=O)n3C)cc1	-20.5	4.8	-10.1	.	-2.2	-2.0	-0.8	i
CSc1nc2ccccc2n1Cc1cccc([N+](=O)[O-])c1	-2.5	-4.3	21.7	-14.9	-2.3	-0.6	-2.6	.
C(=N\Nc1nc2ccccc2[nH]1)/c1ccccc1	-63.3	-4.1	-14.4	-17.5	8.2	-4.4	-5.3	i
Cc1ccc(NC(=O)CSc2nnnn2C)cc1S(=O)(=O)N(C)C	17.7	12.0	-1.6	.	3.0	5.9	-10.5	i
CC1CN(c2c3c(nc4ncnn24)CCCC3)CC(C)O1 (stereo not drawn)	-10.8	-14.3	-12.7	-17.7	14.9	16.1	-1.7	i
CCOCCCNc1ncc2c(n1)CC(c1ccc(C)cc1)CC2=O (stereo not drawn)	.	-9.0	-1.9	-14.1	0.6	-5.5	-15.4	i
CCOc1ccc2[nH]c(C)c(CN3CCN(CC)CC3)c(=O)c2c1	-28.5	-17.7	0.0	-30.6	-2.3	3.2	-6.6	i
O=C(COc1ccc2cc(Br)ccc2c1Br)N1CCOCC1	-10.2	-7.2	0.6	-20.2	2.0	-6.6	0.8	i
COc1ccccc1N1C(=O)c2ccc(C(=O)Nc3ccccc3O)cc2C1=O	-20.9	-14.6	-6.7	-8.8	6.4	2.4	-6.0	i
Nc1nc2n(n1)C(c1ccco1)CC(c1ccccc1)N2 (stereo not drawn)	-79.3	-1.4	-1.4	-21.4	1.9	2.8	2.4	i
COc1cccc(C(C)NC(=O)c2ccncc2)c1 (stereo not drawn)	-25.5	-4.1	9.6	-13.1	-1.7	-0.2	-0.6	i
COc1ccc(-c2nonc2NC(=O)c2ccco2)cc1OC	-5.5	-1.3	8.6	-11.4	1.1	4.1	-10.3	i
O=C(NCN1C(=O)C2C3C=CC(C3)C2C1=O)Nc1ccccc1O (stereo not drawn)	4.4	-6.7	-0.2	0.2	-6.0	-3.0	28.1	i
COc1cc(-c2nnc(COC(=O)c3cc(C)no3)o2)cc(OC)c1OC	-10.2	.	-9.1	-7.9	-0.3	4.5	-2.5	i
CSc1ncc(CN2CCN(C3CCCCC3)C(CCO)C2)cn1 (stereo not drawn)	1.2	-7.6	-5.2	.	-1.4	2.8	8.7	i
CCOC(=O)C1CCCN(S(=O)(=O)c2ccc(-n3cnnn3)c(C)c2)C1 (stereo not drawn)	3.4	4.0	-4.7	-1.4	0.5	-6.5	0.7	i
CC(=O)c1ccc(O)c(CO)c1	.	0.0	0.7	-24.6	3.9	6.1	-2.2	i
Cc1ccc(S(=O)(=O)NCc2ccccc2)cc1C(=O)NCc1ccccn1	2.6	.	3.5	-20.8	-1.4	2.4	-11.8	i
COc1ccccc1/C=C/C=N/NC(=O)CC1C(=O)NN=C1C (stereo not drawn)	-1.2	-1.2	17.7	.	1.8	0.0	-5.2	i
O=C(COC(=O)c1cccnc1Cl)NCCc1ccc(F)cc1	1.7	-0.6	.	-19.6	0.8	3.1	.	.
COC(=O)c1ccc(C(=O)OC)c(NC(=O)c2cnc3n(c2=O)CCS3)c1	.	.	2.4	.	-5.7	-7.1	2.6	i
OCc1nc2c(ccc3ccccc32)[nH]1	-2.9	-19.6	9.3	-11.3	14.7	-0.1	8.7	i
CCOC(=O)CC1=C(C(=O)OCC)C(c2cccnc2)C(C#N)=C(N)O1 (stereo not drawn)	.	5.7	107.8	-8.0	-3.2	4.5	114.9	i	eIF4H FP inh retest=-9.2;PABP FP inh retest=5.8
Cc1cc(C)cc(OCC(=O)NNC(=O)c2ccoc2C)c1	-67.0	0.6	-11.7	-19.6	0.0	-0.3	4.7	i

5 successive records already listed, for reference:
SMILES	Env fusion inh	CSC inhib	PABP FP inh	UUG fidelity	MT1-MMP act inh	MT1-MMP act inh RFP	eIF4H FP inh	Rce1 inhib	others
O=C(COC(=O)c1cccnc1Cl)NCCc1ccc(F)cc1	1.7	-0.6	.	-19.6	0.8	3.1	.	.
COC(=O)c1ccc(C(=O)OC)c(NC(=O)c2cnc3n(c2=O)CCS3)c1	.	.	2.4	.	-5.7	-7.1	2.6	i
OCc1nc2c(ccc3ccccc32)[nH]1	-2.9	-19.6	9.3	-11.3	14.7	-0.1	8.7	i
CCOC(=O)CC1=C(C(=O)OCC)C(c2cccnc2)C(C#N)=C(N)O1 (stereo not drawn)	.	5.7	107.8	-8.0	-3.2	4.5	114.9	i	eIF4H FP inh retest=-9.2;PABP FP inh retest=5.8
Cc1cc(C)cc(OCC(=O)NNC(=O)c2ccoc2C)c1	-67.0	0.6	-11.7	-19.6	0.0	-0.3	4.7	i

(more compounds)
SMILES	Env fusion inh	CSC inhib	PABP FP inh	UUG fidelity	MT1-MMP act inh	MT1-MMP act inh RFP	eIF4H FP inh	Rce1 inhib	others
COCCN(Cc1ccc(C)c(Br)c1)C(=O)Cn1cnc(S(=O)(=O)N2CCCC2)c1	-1.2	-18.0	-3.5	1.4	-0.1	0.1	-11.3	i
CCc1nn(CCCC(=O)NCc2ccc(C)cc2)c(=O)c2cc3occc3n12	-5.1	-4.6	-1.3	-2.9	-1.0	4.7	1.4	i
CCC(CC)Nc1ccc(C(CC(N)=O)NC(=O)c2ccccc2)cc1[N+](=O)[O-] (stereo not drawn)	-12.8	5.8	6.2	-0.9	12.3	-0.1	-0.8	i
Cc1nnc(NC(=O)CSc2nnc(-c3ccccc3)n2C)s1	8.8	-2.8	3.1	.	13.2	9.3	2.9	i
CC(=O)N1CCN=C1SCc1ccc(Br)cc1	-21.8	4.6	7.9	-2.4	3.3	3.7	63.3	i	eIF4H FP inh retest=13.3;PABP FP inh retest=43.0
C/C(=N/NC(=O)CCCOc1ccc(Cl)cc1Cl)c1ccc(C)o1	8.6	7.6	2.8	-17.1	-8.2	-3.3	4.4	i
Cn1nc(C(=O)OCC(=O)Nc2ccc(C(N)=O)cc2)c2ccccc2c1=O	25.3	-8.8	.	10.9	1.5	4.7	.	.
Cc1oc(-c2ccccc2F)nc1CSCC(=O)NC1CCCC1	7.9	-2.3	-6.1	.	1.9	-6.6	-11.0	i
Cc1ccccc1CNCc1cccnc1	.	.	-0.3	.	0.6	4.9	-9.3	i
CCOc1ccccc1Nc1nc(-c2sc(NC(=O)c3ccccc3)nc2C)cs1	.	12.0	7.3	.	.	.	0.2	i
COc1ccc(CCC(=O)N2CCN(S(=O)(=O)c3cccc(C(F)(F)F)c3)CC2)cc1OC	19.0	-11.7	.	.	-2.0	-3.7	.	.
O=C(Cn1cnc2cc([N+](=O)[O-])ccc2c1=O)Nc1ccc2c(c1)OCO2	0.5	-7.5	-5.0	.	-3.5	-0.1	-2.9	i
OCC1(C2=NOC(O)(C(F)(F)F)C2)CCCCC1 (stereo not drawn)	-61.7	1.6	-6.4	-21.9	-3.5	-2.2	0.9	i
CCOc1ccc(NS(=O)(=O)c2ccc(C(=O)NCc3cccnc3)cc2)cc1	-2.0	-2.5	.	.	4.0	-7.4	.	.
CC(=O)N1CCN(c2nnnn2-c2ccccc2)CC1	.	0.3	-6.4	-11.4	-1.1	2.5	5.1	i
O=C(CCCOc1ccc(Br)cc1)Nc1ccc(S(=O)(=O)N2CCOCC2)cc1	19.0	18.9	.	0.5	-2.4	-13.8	.	i
CN(C)CCn1c2c(c(SCC(=O)Nc3cccc(C(F)(F)F)c3)nc1=O)CCCC2	10.6	2.5	.	-5.4	5.2	8.4	.	i
Cc1ccc(NC(=O)CN(C)C(=O)CCOc2cccc(C)c2)cc1	6.6	-6.8	13.6	.	3.1	9.1	-1.7	i
COc1cc(-c2noc(C3CCCN(S(=O)(=O)c4cccc(Cl)c4)C3)n2)cc(OC)c1OC (stereo not drawn)	30.0	-11.2	17.1	-8.5	4.1	-9.6	21.1	i

These rows are one share of the data (hit frequency here may not be typical).
